NPYLR7 ag: mosquito NPYLR7 agonism; 270,000 tested, 0.15% active; HEK293T NPYLR7/Galpha15, GCaMP6s calcium fluorescence; AID 1259423; activation, % at 10 µM; in the data active = activation above about 40%;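 note: 0% = vehicle and 100% = reference agonist at the receptor; some compounds past the cut are filed as inactive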
NPYLR7 ag max-min: also measured in NPYLR7 ag; calls as there; activation, %; measured here: Max-Min RFU normalised activation; some inactives read as strong as hits;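 span of the calcium signal over five minutes; 0% = vehicle and 100% = native peptide agonist; compound fluorescence can raise it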
* = called active by the depositor. The list is partial (hit frequency here may not be typical).

Values in the order: NPYLR7 ag, NPYLR7 ag max-min
[1] CC(=O)OCC(=O)N1CCC(CCc2ccc3c(c2)OCO3)CC1
→ -10, -12
[2] CCN(CC(=O)NC1CCOCC1)CC(O)c1ccc(C)cc1 (centres undefined)
→ 8, 7
[3] Oc1ccccc1C1=Nc2ccccc2N=C(C(F)(F)F)C1
→ 0, -2
[4] O=C(c1cncc(Br)c1)N1CCN(c2nccc(-c3ccc(N4CCOCC4)cc3)n2)CC1
→ -5, -10
[5] CCc1ccccc1NC(=O)CC1(NC(=O)OC(C)(C)C)CCC1
→ 4, 2
[6] CCOC(=O)c1ccc(NC(=O)Nc2nc3c(s2)CC(C)CC3)cc1 (centres undefined)
→ -1, -5
[7] Cn1cncc1[C@@H]1C[C@H](NC(=O)c2ccccc2)C[C@H](C2CCCCC2)O1
→ 15, 13
[8] COc1ccc(OC)c(-c2cccc(-c3ccc(NC(=O)COC(C)=O)cc3)n2)c1
→ 2, 6
[9] CCN(CCn1cccn1)Cc1nc(C2(c3ccc(C)cc3)CCCC2)no1
→ -2, -4
[10] CN(C(=O)CC(C)(C)C)[C@@H]1[C@@H](O)C[C@@H]2C[C@H](c3ccccn3)OC[C@@]21O
→ 0, 2
[11] O=C(/C=C/c1c(C(=O)O)[nH]c2cc(Cl)cc(Cl)c12)Nc1ccccc1
→ 28, 19
[12] COc1ccc(C(=O)Nc2cc(C(=O)N3CCC(C)CC3)cn(C)c2=O)c(OC)c1
→ 0, 0
[13] COc1ccc(-c2nnc(CSC(=S)N3CCCC3)o2)cc1
→ 6, 5
[14] CCOC(=O)CN1C(=O)CCN(C(=O)c2cccs2)CC(OC)c2ccccc21 (centres undefined)
→ 4, 11
[15] O=C(CSc1nc2ccccc2s1)N/N=C/c1ccc([N+](=O)[O-])cc1
→ 9, 6
[16] CC1CN(C2CC2)CC1NC(=O)Nc1ccccc1C(F)(F)F (centres undefined)
→ -1, 19
[17] CC1CCCN(S(=O)(=O)c2ccc3[nH]c(=O)cc(C(=O)NC4CCCC4)c3c2)C1 (centres undefined)
→ -5, -8
[18] O=C(Cn1nnc(-c2ccccc2)n1)N1CCCCC1
→ 4, 6
[19] Cc1nc(N2CCN(Cc3ccc(C)c(C)c3)C(=O)C2)c2cnn(C)c2n1
→ 1, -2
[20] COC(=O)C1=C(O)/C(=C\c2cccc(F)c2O)SC1=Nc1ccccc1Cl
→ 4, 16

(more compounds)
Values in the order: NPYLR7 ag, NPYLR7 ag max-min
[21] CCCNC(=O)CSc1ncnc2c1nnn2CC
→ 0, 23
[22] CC(C)CN(CCN(C)C)C(=O)NC(C)c1ccc(Br)cc1 (centres undefined)
→ 9, 16
[23] C=CCN(CC(=O)N1CCc2sccc2C1COc1cccc(OC)c1)C(=O)COC (centres undefined)
→ -1, 1
[24] CC(=O)N1CC(C)CN(Cc2cccc3c2OCCO3)c2ccccc21 (centres undefined)
→ 1, -9
[25] CCOC(=O)N1CCC(N2CCN(c3ccc(C(N)=O)cn3)CC2)CC1
→ 26, 19
[26] Clc1ncnc2c1C(c1ccccc1)c1c(Cl)ncnc1O2
→ 16, 15
[27] C#CCOCC(O)C[n+]1ccccc1 (centres undefined)
→ 5, 5
[28] CCCCS(=O)(=O)N1CCN(c2ccc(-n3cccn3)nn2)CC1
→ -5, -8
[29] CCOc1ccc(-c2cccc(NS(=O)(=O)c3ccc4ccccc4c3)c2)nn1
→ -2, 6
[30] CC(C)(C)Cc1nnc(C2CCCN(C(=O)NCc3ccccc3)C2)o1 (centres undefined)
→ -5, 1
[31] CCn1c(C2CCCN(C(=O)CCN3CCCO3)C2)nn(C)c1=O (centres undefined)
→ 6, 5
[32] CC1C(=O)N(c2ccc([N+](=O)[O-])cc2)CCN1C(=O)c1cccc(F)c1 (centres undefined)
→ 1, 3
[33] Cc1sc2nc(CN3CCC(C)CC3)n(CC(=O)Nc3ccc(F)cc3F)c(=O)c2c1C
→ 11, 8
[34] Cc1nn(Cc2ccc(F)cc2)c(Cl)c1C=C1C(=O)Nc2ccc(Cl)cc21
→ 6, 13
[35] CCOC(=O)C1=C(C)NC(c2ccccc2[N+](=O)[O-])NC1c1ccccc1[N+](=O)[O-] (centres undefined)
→ -6, -6
[36] Cc1ccccc1-c1n[nH]c(=O)o1
→ -4, -5
[37] CCCC(=O)NCC(=O)Nc1cc(OC)ccc1C
→ 10, 6
[38] Cc1n[nH]c(C)c1CCNC(=O)Nc1ccccc1-c1ccccc1
→ 8, 0
[39] COc1cccc(C(=O)N2CCN(c3ncnc4c3nnn4Cc3ccccc3)CC2)c1
→ -10, -16
[40] CC(=O)Nc1cccc(NC(=O)CSc2nc(C3CCCCC3)nc3c2c(=O)n(C)c(=O)n3C)c1
→ -3, -8

Later entries:
Values in the order: NPYLR7 ag, NPYLR7 ag max-min
[41] COc1cc(C)c(S(=O)(=O)N(C2CC2)C2CCS(=O)(=O)C2)c(C)c1 (centres undefined)
→ -2, -4
[42] CCC(CC)CN(CCC#N)C(=O)c1csc(C)n1
→ 2, -1
[43] CCOc1cc2c(cc1NC(=O)c1cnc3c(c1)c(=O)n(C)c(=O)n3C)OC(C)C2 (centres undefined)
→ -1, -5
[44] O=C1CSC(c2ccccc2F)N1CC1CCNCC1 (centres undefined)
→ -2, -6
[45] Cn1c(NCc2ccncc2)nc2cc(-c3ccsc3)sc2c1=O
→ 6, 0
[46] Cc1ccc(OC2(C(=O)NCc3sccc3C)CCNCC2)cc1
→ 8, 5
[47] CCc1ccc(CCC(=O)N2CCC3(CN(C)C(=O)O3)C2)cc1 (centres undefined)
→ 10, 6
[48] Cc1cc(C2CCC2)nc(NCc2cc(C(C)C)on2)n1
→ 3, -1
[49] Cc1ccc(C(=O)N2CCC(N3CCCCC3)CC2)cc1[N+](=O)[O-]
→ -6, -9
[50] CC(C)COc1nc(-c2ccc(F)cc2)n(-c2ccc(NC(=O)c3cccs3)cc2)n1
→ 1, 1
[51] COc1ccc(C(NS(=O)(=O)c2ccc(OC)cc2)C(C)C)cc1 (centres undefined)
→ 33, 20
[52] O=C(N[C@H]1CCCCNC1=O)c1ccc(N2CCC(NCc3ccc(Cl)s3)CC2)cc1
→ 23, 7
[53] COC(=O)c1cn(C2CCCCC2OC(=O)c2cnn(C)c2)nn1 (centres undefined)
→ 0, 1
[54] O=C(NCC(=O)N1CCC(n2c(=O)[nH]c3ccccc32)CC1)c1ccc2c(c1)OCO2
→ 0, -2
[55] COc1ccc(OCC(=O)Nc2cc(C3CC3)nn2-c2nc(C)cc(=O)[nH]2)cc1
→ 1, -1
[56] O=C(CSc1nc2[nH]ncc2c(=O)[nH]1)NCC1CCCO1 (centres undefined)
→ -1, -1
[57] CC(C)CNC(=O)c1nnn(-c2ccccc2)c1CSc1ncccn1
→ -2, -6
[58] COC(=O)CCCCCCC(=O)N1CCCN(Cc2cc(=O)c(OCc3ccc(C(C)(C)C)cc3)co2)CC1
→ 23, 13
[59] CCc1nnc(NC(=O)CSc2nc3c(c(=O)n2C)SC(C)C3)s1 (centres undefined)
→ -2, -2
[60] O=C(CCC1CCN(Cc2ccccc2O)CC1)NC1CC1
→ -4, -4

(further entries)
Values in the order: NPYLR7 ag, NPYLR7 ag max-min
[61] Cc1cc(C)c2nc(N(CCCn3ccnc3)C(=O)c3cccs3)sc2c1
→ -13, -17
[62] COc1ccc(-n2c(=O)[nH]c3cc(C(=O)NCCc4ccc(Cl)cc4)ccc3c2=O)c(OC)c1
→ -10, -12
[63] COC(=O)C1=NOC(C(=O)O)C1 (centres undefined)
→ 0, 3
[64] Cc1ccc(NC(=O)N(CCN(C)C)Cc2c(-c3ccccc3)noc2N2CCc3ccccc3C2)cc1
→ 0, 4
[65] O=C(O)c1cc2cccc([N+](=O)[O-])c2[nH]1
→ -5, -8
[66] CN(Cc1ccc(Cl)cc1Cl)C(=O)c1ccc2c(c1)CCC(=O)N2
→ -14, -17
[67] CC(C)(C)c1ccc(-n2c(=O)[nH]c3c(C(N)=O)nc(-c4cccs4)nc32)cc1
→ -4, -7
[68] OCCCc1nc2ccccc2n1-c1ccc2[nH]ccc2c1
→ -2, -2
[69] CSc1nc(N)c(C#N)c(-c2ccc(O)cc2)c1C#N
→ 9, 7
[70] Cc1[nH]c(SCC(=O)N2CCCCCC2)nc1Cc1ccccc1
→ 7, 5
[71] O=C(CNCCO)N1N=C(c2cn(-c3ccccc3)nc2-c2ccccc2)CC1c1ccco1 (centres undefined)
→ -5, -8
[72] Cn1cc(C(=O)N2CCCCCC2)cc(NC(=O)/C=C\c2ccccc2)c1=O
→ -11, -16
[73] COCCNC(=O)c1cc(NC(=O)c2ccccc2Br)ccc1N1CCN(c2ccccc2OC)CC1
→ -8, -5
[74] COc1cc(C(C)=O)cc(OC)c1O
→ -13, -17
[75] CNC(=O)c1nn(CCc2ccccc2)c2c1CC(N1CCCCCC1)CC2 (centres undefined)
→ 17, 12
[76] Cc1ccccc1OCC(O)CN(Cc1ccsc1)Cc1ccco1 (centres undefined)
→ 24, 32
[77] Cc1ccc2nc(NC(=O)CSc3nc4c(c(=O)n3Cc3ccccc3)SC(C)C4)sc2c1 (centres undefined)
→ 4, -2
[78] CC(=O)c1cccc(-n2c(COc3ccccc3)n[nH]c2=S)c1
→ 2, -2
[79] Cc1cc(C(=O)N(Cc2ccccn2)c2nc3c(C)c(Cl)ccc3s2)n(C)n1
→ -6, -5
[80] Cc1nc(CNC(=O)C(C)Cn2cccn2)cs1 (centres undefined)
→ 1, -3

Next structures follow:
Values in the order: NPYLR7 ag, NPYLR7 ag max-min
[81] CN1NC(c2cccs2)C2C(=O)NC(=O)C21 (centres undefined)
→ 5, 3
[82] CSc1ncc(CNCc2cccc(F)c2F)c(N(C)C2CCCCC2)n1
→ -5, -1
[83] c1ccc(OCCCN2CCc3ccccc3C2)cc1
→ -13, -15
[84] Cc1ccc(C)c(OCCN(C)Cc2cc3ccccc3n(C)c2=O)c1
→ 11, 3
[85] COc1cc(=O)n(-c2ccccc2C)nc1C(=O)N1CCN(c2ccccc2Cl)CC1
→ 15, 15
[86] CCCCSCc1nc2c(c(=O)[nH]1)C1(CCCC1)Cc1ccccc1-2
→ -4, 4
[87] Cc1noc(C)c1NC(=O)c1n[nH]c(C(C)C)c1Br
→ 5, 0
[88] COC(=O)c1ccc(C)c(NC(=O)C2(S(=O)(=O)c3ccc(Cl)cc3)CCCC2)c1
→ 4, 1
[89] Clc1ccc(SCc2csc(Cc3ccc4c(c3)OCO4)n2)cc1
→ 6, 8
[90] COc1cccc(SCc2csc(Cc3ccc(Cl)c(Cl)c3)n2)c1
→ 5, 4
[91] O=C(c1nn2c(C(F)(F)F)cc(-c3ccccc3)nc2c1Br)N1CCN(Cc2ccccc2)CC1
→ -1, -5
[92] CC(C)C(NC(=O)C1CCN(C(=O)OCC(F)(F)F)CC1)c1nc2ccccc2[nH]1 (centres undefined)
→ 7, 2
[93] CCOCCOc1nc(-c2ccc(C(F)(F)F)cc2)n(-c2ccc(NC(=O)C34CC5CC(CC(C5)C3)C4)cc2)n1
→ -2, 4
[94] CC1CN(CCc2ccccc2)c2nc3c(c(=O)[nH]c(=O)n3C)n2C1 (centres undefined)
→ 6, 0
[95] NC(=O)CCSc1nc2sccc2c(=O)n1-c1ccccc1
→ 1, 2

Structures above that contain a Cl atom, in the order listed:
Values in the order: NPYLR7 ag, NPYLR7 ag max-min
[11] O=C(/C=C/c1c(C(=O)O)[nH]c2cc(Cl)cc(Cl)c12)Nc1ccccc1
→ 28, 19
[20] COC(=O)C1=C(O)/C(=C\c2cccc(F)c2O)SC1=Nc1ccccc1Cl
→ 4, 16
[26] Clc1ncnc2c1C(c1ccccc1)c1c(Cl)ncnc1O2
→ 16, 15
[34] Cc1nn(Cc2ccc(F)cc2)c(Cl)c1C=C1C(=O)Nc2ccc(Cl)cc21
→ 6, 13
[52] O=C(N[C@H]1CCCCNC1=O)c1ccc(N2CCC(NCc3ccc(Cl)s3)CC2)cc1
→ 23, 7
[62] COc1ccc(-n2c(=O)[nH]c3cc(C(=O)NCCc4ccc(Cl)cc4)ccc3c2=O)c(OC)c1
→ -10, -12
[66] CN(Cc1ccc(Cl)cc1Cl)C(=O)c1ccc2c(c1)CCC(=O)N2
→ -14, -17
[79] Cc1cc(C(=O)N(Cc2ccccn2)c2nc3c(C)c(Cl)ccc3s2)n(C)n1
→ -6, -5
[85] COc1cc(=O)n(-c2ccccc2C)nc1C(=O)N1CCN(c2ccccc2Cl)CC1
→ 15, 15
[88] COC(=O)c1ccc(C)c(NC(=O)C2(S(=O)(=O)c3ccc(Cl)cc3)CCCC2)c1
→ 4, 1
[89] Clc1ccc(SCc2csc(Cc3ccc4c(c3)OCO4)n2)cc1
→ 6, 8
[90] COc1cccc(SCc2csc(Cc3ccc(Cl)c(Cl)c3)n2)c1
→ 5, 4

Source: PubChem
